Mtb hypoxia inh: reduces hypoxia-regulated biosensor signal in M. tuberculosis; fluorescence inhibition, % (concentration not given with the values); M. tuberculosis hypoxia-regulated fluorescent reporter, fluorescence; 0.1% of 300,000 active;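 active means 35 to 45% if threefold the growth effect, above 45% if 1.5-fold the growth effect; inactive means the rest, general growth blockers included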;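 further: wells of about 50 µL received 100 nL stock; 0% = vehicle wells and 100% = reference inhibitor wells; whole bacteria with a GFP reporter of the hypoxia response; strong numbers were not always called active; many hits fall short of the cut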
PrP 5UTR inh: inhibition of PrP 5' UTR reporter expression; cell-based PrP 5' UTR mRNA reporter, plate reader; inhibition, % (concentration not given with the values); 0.35% of 340,000 active; AID 488862;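 active means every replicate at 50% or more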;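 further: 0 = median of the neutral control wells; tested in H4 reporter cells; numbers are from one replicate; inactives centre near -14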
Sa ugtP lethal: compounds lethal to S. aureus RN4220 ugtP deletion mutant. OD600 growth, 16 h; some inactives read as strong as hits. growth inhibition, % (test concentration not listed). 0.54% of 330,000 active. AID 1259309;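 active means z-score under -3 and OD600 up to 0.15 on both plates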;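 further: plate controls were untreated wells for no effect and antibiotic for full effect; wells of about 80 µL received 100 nL stock; the first replicate is given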
Bead autofluor: compound fluorescence in toxin protease inhibitor counterscreen. 3.1% of 360,000 active. compound autofluorescence counterscreen, microsphere flow cytometry; active compounds read high. fluorescence intensity (no concentration beside the values). AID 624483;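 active means at least 3 SD above the mean of all compounds, about 16000 in these data; inconclusive means too few beads counted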;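 further: 100 nL of 1 mM stock went into each well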
Sa RN4220 lethal: S. aureus RN4220 growth inhibition. OD600, 16 h. inhibition, % (test concentration not listed). 0.33% of 330,000 active;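 active means z-score of -3 or lower and OD600 up to 0.18 on both plates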;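 further: plate controls were untreated cells for no effect and reference antibiotic for full effect; stock transfer was 100 nL into about 80 µL; one replicate is shown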
BJeLR lethal: kills HRASV12-expressing BJeLR cells. BJeLR (HRASV12) viability, CellTiter-Glo ATP luminescence, 48 h; reference of the scale not given here. inhibition, % (test concentration not listed). 0.17% of 300,000 active;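 active means replicate mean above 50%; inconclusive means above 50% but judged a plate artefact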;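 further: 50 nL library stock added to about 25 µL; numbers are from one replicate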
Mtb hypoxia inh growth: also measured in Mtb hypoxia inh; calls as there; growth inhibition, %; measured here: M. tuberculosis growth (absorbance);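 0% = vehicle and 100% = reference antibiotic; read after six days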
* hit, by the source's call; ? = inconclusive; / = not tested or not shown. Compounds were not picked by outcome; about 3.9% have a hit in one of these screens.

Molecule	Mtb hypoxia inh	Mtb hypoxia inh growth	PrP 5UTR inh	Sa ugtP lethal	Bead autofluor	Sa RN4220 lethal	BJeLR lethal
CC(/C=C/c1ccco1)=NNC(=O)C1COc2ccccc2O1 (configuration not stated)	0	6	/	17	/	-5.2	/
Cc1sc2ncnc(Nc3ccc(O)cc3)c2c1C	-12	-6	-21	5	5182	6.0	-4
COCCCNC(=O)c1cc(C(=O)Cc2ccccc2)c[nH]1	7	8	-13	3	4083	1.9	2
CC(OC(=O)c1ccncc1)C(=O)Nc1cccc(Cl)c1 (configuration not stated)	-1	1	-5	-1	3176	8.7	1
COc1cc(OC)cc(N2CCN(S(=O)(=O)c3ccc(-n4cnnn4)cc3)CC2)c1	0	1	-12	1	5449	0.8	5
CC(=O)c1c(C)nc(-c2ccccc2)nc1N	6	5	-44	-14	2773	-4.1	-1
CCC(=O)c1ccc(OCC(O)CN2CCN(c3ccc(F)cc3)CC2)cc1 (configuration not stated)	6	11	-59	-1	19445*	6.9	2
CCOc1c2ccoc2nc2c(OC)c(OC)ccc12	/	/	-6	0	4063	6.4	-5
CNc1oc(Cc2ccccc2)nc1S(=O)(=O)c1ccc(Cl)cc1	5	3	-3	2	9000	1.0	1
Cc1ccc2c(c1)c(-c1csc(N)n1)c(C)n2C	7	7	-19	12	3097	1.6	0
CCN1C(=O)N(CC)C(O)(c2ccccc2)C1(O)c1ccccc1 (configuration not stated)	/	/	-29	3	3325	7.8	-4
CS(=O)(=O)N(CC(=O)N1CCc2ccccc2C1)c1ccccc1Br	-9	1	-18	13	3587	2.9	16
Cc1c(C(=O)N2CCCCCC2)nnn1-c1nonc1N	7	15	-13	-3	4635	0.5	-4
Cc1cc(Nc2nn(C)c(N)c2C#N)ccc1F	0	-4	-13	2	2043	3.8	-4
O=C(CN(C(=O)c1csnn1)c1ccc(F)c(Cl)c1)NCc1ccccc1	14	3	-13	5	6538	4.9	-17
O=C(O)CCCC(=O)Nc1nncs1	17	13	-9	8	3258	0.9	-4
Cc1ccc(CC(=O)NC2CCN(Cc3ccccc3)CC2)cc1	4	-9	-24	6	3524	-2.1	-7
Nc1nonc1C(=O)N/N=C/c1ccc(Br)o1	/	/	-16	/	5220	/	-1
O=C(Cn1cncn1)NCCC(c1ccccc1)c1ccccc1	16	3	-36	2	3725	8.9	1
O=C(NCCc1ccccc1)C1CCC(Cn2c(=O)c3ccccc3n(Cc3cccc(Cl)c3)c2=O)CC1 (configuration not stated)	1	-8	-1	6	4396	1.6	-9
O=C(OCc1ccccc1)C1CCCN1C(=O)c1cccs1 (configuration not stated)	20	15	-21	3	3512	-12	12
CC1CCCC(NC(=O)c2ccc3c(c2)OCCO3)C1C (configuration not stated)	11	15	-58	4	3785	3.9	/
CCN(CC)CCOC(=O)c1c(C)oc2ccc(O)cc12	5	7	-12	-9	2341	1.2	11
CCNc1nc(NCC)n2c(SCC(=O)Nc3ccc(C)c(C)c3)nnc2n1	-13	3	-23	5	?	3.8	-2
COc1ccccc1NC(=O)c1cccc(S(=O)(=O)N2CCN(c3ccccc3)CC2)c1	6	-3	-16	10	6931	-1.5	/
Cc1cccc2cc(C(c3nnnn3CC3CCCO3)N3CCc4ccccc4C3)c(=O)[nH]c12 (configuration not stated)	4	13	/	-3	/	1.5	/
O=C(c1ccccc1F)N1CCc2ccccc21	6	4	8	2	3208	0.1	-4
Cc1ccc(NC(=O)COc2ccc(-n3cnnn3)cc2)cc1C	3	2	-19	-4	3334	1.3	7
Cc1nnc(Nc2ccc(S(N)(=O)=O)cc2)c2ccccc12	5	-2	-10	1	3823	2.4	-7
COc1ccccc1/C=N/NC(=O)C(C)Cn1cnc2ccccc21 (configuration not stated)	/	/	-18	/	2727	/	1
CCOC(=O)C1=C(COC(=O)Cc2ccccc2F)NC(=O)NC1C (configuration not stated)	-2	-1	-11	-1	5351	9.9	-1
O=C(O)COCC(=O)NCc1nc(-c2ccc(C(F)(F)F)cc2)no1	10	5	-23	7	6034	3.2	0

Next part (2 carried over from the part before).
Molecule	Mtb hypoxia inh	Mtb hypoxia inh growth	PrP 5UTR inh	Sa ugtP lethal	Bead autofluor	Sa RN4220 lethal	BJeLR lethal
CCOC(=O)C1=C(COC(=O)Cc2ccccc2F)NC(=O)NC1C (configuration not stated)	-2	-1	-11	-1	5351	9.9	-1
O=C(O)COCC(=O)NCc1nc(-c2ccc(C(F)(F)F)cc2)no1	10	5	-23	7	6034	3.2	0
C=CCn1c(=O)n(C)c2c(=O)n(C)c(=O)n(C)c21	24	7	-11	7	3003	1.3	/
CC1=C(C(=O)OCc2ccccc2)C(c2ccc(C)o2)C2=C(CCCC2=O)N1 (configuration not stated)	5	8	0	6	2428	9.2	-9
CCn1ccc(C(=O)Nc2ccc(Cl)cn2)n1	6	-5	-52	0	6564	-0.4	-6
CC(=O)Cn1c2ccccc2n2nc(CCC(=O)O)c(=O)nc12	6	-2	-32	-2	2584	0.4	-6
O=C(COc1ccc(S(=O)(=O)N2CCOCC2)cc1)Nc1ccc(Cl)c(C(F)(F)F)c1	2	0	-5	-11	11225	-0.2	0
CNC(=O)CSc1nnc(-c2ccco2)n1-c1cccc(OC)c1	0	-12	-22	11	4104	1.9	-10
CC1Cc2ccccc2N1C(=O)c1cnc2sccn2c1=O (configuration not stated)	-4	-8	-12	-3	4132	-0.6	-7
CC(=O)Nc1cccc(C(=O)NNC(=O)c2ccc(-n3cnnn3)cc2)c1	5	7	-20	1	3982	3.2	/
COC(=O)C1=C(c2ccc(OC)c(OC)c2)CC2CCC1N2C(=O)NCCOc1ccccc1 (configuration not stated)	8	8	/	6	/	1.9	/
COc1cccc(N=C2SC(C(=O)Nc3ccccc3F)CC(=O)N2C)c1 (configuration not stated)	3	-4	-19	13	7543	7.3	2
CN(CCNC(=O)C1CC(=O)N(C2CCCC2)C1)Cc1ccccc1 (configuration not stated)	2	6	-8	4	5971	4.7	4
C=CCOc1ccc(/C=C/C(=O)OCC(=O)NCCC2=CCCCC2)cc1	6	10	-20	7	5806	-0.4	1
Cc1nc2cc(NC(=O)NC3CC3)ccc2n1C	10	13	-15	4	3361	8.1	16
CC(C)C(OC(=O)CN1C(=O)COc2ccccc21)C(=O)NC1CCCC1 (configuration not stated)	10	5	-2	22	15816	1.6	0
Cc1ccsc1/C=N/NC(=O)CNC(=O)c1ccc(S(=O)(=O)N(C)C)cc1	/	/	-14	/	2373	/	-15
CCCNC(=O)c1ccc(C)c(NC(=O)C2=C(C)OCCS2)c1	3	4	-7	3	3505	7.5	-3
CCOCCCNC(=O)c1ccc(OC)c(OC2CCN(C(C)C)CC2)c1	0	-4	-14	5	3349	2.5	1
Nc1c(N(CCO)C(=O)COc2ccc(Cl)cc2)c(=O)[nH]c(=O)n1Cc1ccccc1	9	-1	-16	4	2268	5.5	-5
Cc1cccc(N2C(=O)C(O)=C(C(=O)c3cccs3)C2c2ccc(Cl)cc2)n1 (configuration not stated)	-4	0	-19	-20	6069	13	11
Cc1cc(Br)ccc1NC(=O)CN1C(=O)C2CC=CCC2C1=O (configuration not stated)	3	5	-30	5	3509	5.1	/
CC(=O)Nc1ccc(S(=O)(=O)NNC(=O)c2ccc3c(c2)OCO3)cc1	0	15	11	1	5496	3.0	7
O=C(Nc1ccccc1)c1ccc(-c2ccc(Br)cc2)o1	4	15	-11	3	10543	1.0	-2
C=CCN(C(=O)c1oc2c(Cl)cc(C)cc2c1C)C1CCS(=O)(=O)C1 (configuration not stated)	10	4	-99	4	5938	5.3	2
CN1CCN(C2CC(=O)N(CCc3ccccc3)C2=O)CC1 (configuration not stated)	2	0	-27	2	6109	2.0	6
COc1ccc(OC)c(CN2CCN(C(=O)CN3C(=O)NC4(CCCC4)C3=O)CC2)c1	1	7	-15	0	4018	0.6	6
O=C(COC(=O)CCc1nc2ccccc2s1)Nc1ccc(Cl)cn1	7	4	-8	-2	10408	8.5	2
Cc1cc(C)c(NC(=O)CSc2nc3ccncc3[nH]2)c(C)c1	1	-5	-4	2	5456	0.4	8
Cc1cccc(C)c1OCc1cc(C(=O)N2CCC(c3ccncc3)CC2)no1	2	6	-41	8	6537	4.4	5
O=C(CSc1nc2nc[nH]c2c(=O)[nH]1)NC1CCCCC1	/	/	-15	-3	4791	-0.4	4
Cc1cc(NC(=O)c2ccc(NC(=O)C(C)Oc3ccccc3)cc2)no1 (configuration not stated)	7	1	-5	-2	8731	4.4	-4
Cc1nc(C(=O)Nc2cccc(Cl)c2)nn1-c1cc(OC(C)C)c(Cl)cc1Cl	-11	7	5	-4	23251*	-5.3	7
CN(CC(=O)Nc1ccccc1Cl)C1CCS(=O)(=O)C1 (configuration not stated)	-7	-2	-3	2	8490	-0.7	/
CN(C)[C@@H](CO)c1nnc([C@H](CC(=O)O)NC(=O)C2CCNCC2)o1	/	/	-39	/	4359	/	-6
O=C(c1ccccn1)N1CCN(C(=O)c2ccccn2)CC1	-3	-4	1	10	16386*	7.0	-2
COc1ccccc1CNC(=O)Cn1ccsc1=N	-1	-7	9	10	?	2.4	-4
COc1cccc(/C=C2\Oc3ccc(O)cc3C2=O)c1O	4	10	24	8	3459	13	-5
Cc1cccc(CC2CC(=O)N(CCc3ccc4c(c3)OCO4)C2=O)c1 (configuration not stated)	-3	0	-12	3	4362	1.8	10
CCOC(=O)C1(Cc2cccc(F)c2)CCN(C(=O)C2CCOCC2)CC1	7	2	-53	15	2210	7.8	14
O=C(Cn1cc2c(n1)CCCCC2)Nc1c(F)c(F)cc(F)c1F	/	/	-3	2	6302	0.0	-9
Cc1ccc(NC(=O)COc2ccc3c(c2)CCC3)nc1	0	2	-42	4	7098	4.0	0
O=C1CCC(C(=O)OCC(=O)N2N=C3/C(=C\c4ccccc4)CCCC3C2c2ccccc2)N1 (configuration not stated)	-4	3	12	-4	3808	5.1	/
COc1ccccc1N1CCN(C(CNS(=O)(=O)c2ccccc2)c2ccccc2)CC1 (configuration not stated)	8	5	-20	17	4352	1.6	3
Cc1cc(C)c2c(ccc3cccc[n+]32)c1	-8	4	/	7	4530	1.3	17

Some entries already given, showing only Mtb hypoxia inh, Sa ugtP lethal and Mtb hypoxia inh growth:
SMILES | Mtb hypoxia inh | Sa ugtP lethal | Mtb hypoxia inh growth
Cc1ccc(NC(=O)COc2ccc3c(c2)CCC3)nc1 | 0 | 4 | 2
O=C1CCC(C(=O)OCC(=O)N2N=C3/C(=C\c4ccccc4)CCCC3C2c2ccccc2)N1 (configuration not stated) | -4 | -4 | 3
COc1ccccc1N1CCN(C(CNS(=O)(=O)c2ccccc2)c2ccccc2)CC1 (configuration not stated) | 8 | 17 | 5
